# Assay outcomes deposited in PubChem BioAssay by National Center for Advancing Translational Sciences (NCATS).
# Rango dissoc inh: inhibitors of RanGTP-induced Rango-importin beta complex dissociation; hit rate 0.071% among 340,000; Biochemical FRET Rango-importin beta, RanGTP-induced dissociation; O95149+P62826; AID 540253; Potency, µM (top dose mostly 46.1 µM), without a hit: at the highest dose activity change, negative = inhibition; active means falling FRET ratio curve, often poorly fitted, with flat reads before Ran was added; inconclusive means other falling curves, or compound fluorescence or quenching; inactive means flat or rising ratio curve;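 also: potency is read from the fitted curve at half-maximal effect; % of control where 0% means no effect; nearly all actives have a fitted effect of over 45% in size; -100% = wells without RanGTP and RCC1; the record marks most hits as doubtful in a second field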
#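 Compounds preincubate 5 min with complex of recombinant Rango and importin beta in PBS with 1 mM DTT. Ran (0.6 uM) loaded with 2 mM GTP plus 0.2 uM RCC1 starts dissociation; FRET is recorded 45 min later.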
# miR-21 reporter: raises the signal of a miR-21 reporter; HeLa miR-21 FLuc reporter, luciferase, 48 h; Potency, µM (highest dose often 38.3 µM), for the others: at the highest dose reporter change, positive = more light; 340,000 tested, under 10 active; AID 2288; active = well fitted rising curve with a large enough effect; inconclusive = small, poorly fitted or top-dose-only effect; inactive = no such curve, though single readings can be large or run the other way;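 also: % of control where 0% means no effect; miR-21 action dims this reporter so a rising signal means less miR-21 action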
#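 Compounds were titrated across several concentrations (up to approximately 40 uM) and incubated 48 hours with HeLa miR-21-FLuc reporter cells (miR-21 target sequence downstream of FLuc, endogenous miR-21). Readout was firefly luciferase luminescence after lytic detection reagent.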
# Rango-impB inh: prevents formation of the Rango-importin beta complex. Rango CFP/YFP FRET sensor + importin beta, 45 min. Q14974. hit rate 0.031% among 340,000. Potency, µM (doses to about 92.2 µM), for inactives: at the highest dose inhibition of complex formation; active = rising FRET ratio curve, often small or poorly fitted; inconclusive = mostly compound fluorescence or quenching in the first reads; inactive = flat curves in all reads;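 also: potency is read from the fitted curve at half-maximal effect; 0% = DMSO wells and 100% = buffer wells lacking importin beta; nearly all actives have a fitted effect of over 15% in size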
#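 FRET biosensor Rango (snurportin 1 IBB between N-terminal EYFP and C-terminal Cerulean), 50 nM in PBS/1 mM DTT/0.02% Tween-20/0.1% BSA, preincubated 5 min RT with compound; 0.125 microM importin beta added, 45 min RT, CFP/YFP FRET ratio read.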
# GLA inh pH 4.5: inhibitors of human alpha-galactosidase A at pH 4.5 | P06280 | purified enzyme, 4-MU-alpha-Gal fluorescence, pH 4.5 | activity change, negative = inhibition, % at 105 µM | 230,000 tested, under 10 active | AID 1467; inconclusive = small, poorly fitted or top-dose-only inhibition, or a rising curve; inactive = flat fitted curve, though single readings scatter; no compound was filed as active;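 also: 0% = full activity with enzyme and -100% = basal without enzyme; dose as in the result columns while the protocol names 77 µM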
# Target sequence (P06280 whole entry, looked up): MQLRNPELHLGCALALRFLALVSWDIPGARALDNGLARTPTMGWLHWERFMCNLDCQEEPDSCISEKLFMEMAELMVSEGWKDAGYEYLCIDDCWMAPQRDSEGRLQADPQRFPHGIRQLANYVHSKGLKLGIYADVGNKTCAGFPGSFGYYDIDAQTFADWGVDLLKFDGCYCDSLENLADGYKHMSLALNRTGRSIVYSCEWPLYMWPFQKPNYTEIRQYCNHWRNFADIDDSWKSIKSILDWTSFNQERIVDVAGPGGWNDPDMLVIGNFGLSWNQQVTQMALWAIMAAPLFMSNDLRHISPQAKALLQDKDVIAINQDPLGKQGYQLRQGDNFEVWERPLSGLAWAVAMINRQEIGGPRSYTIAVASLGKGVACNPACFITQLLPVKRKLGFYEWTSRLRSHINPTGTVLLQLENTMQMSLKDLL
# Starred values were filed as active, the others as inactive; ? = inconclusive; / = not tested or not shown; & = joins results of further samples; [ ] = remark or other dose.
SMILES,Rango dissoc inh,miR-21 reporter,Rango-impB inh,GLA inh pH 4.5
C=CCn1c2ccccc2c2nnc(SCC(=O)O)nc21,1%,0%,2.2%,/
CS(=O)(=O)Nc1ccc(C(=O)Nc2ccc3c(c2)OCCO3)cc1,-6%,-49%,0.4%,0
COC(=O)c1nnn(CC(=O)NC(=O)Nc2cccc(Cl)c2C)c1C(=O)OC,-17%,-3%,-4.6%,-6[21.1 µM]
CN(C)CC(C)(C)CN=Cc1c(O)[nH]c2ccccc12,-7%,-10%,1.3%,-3
CCOC(=O)c1c(-c2ccccc2)csc1NC(=O)c1cccc(N2C(=O)CCC2=O)c1,-1%,3%,-2.1%,3
COc1cc2c(cc1OC)C1(CCCCC1)CN(C)C2,?,-1%,?,-20
Cc1cc(F)ccc1NCc1ccccc1[N+](=O)[O-],-1%,-8%,0.0%,-6
COC(=O)[C@H](Cc1ccccc1)NC(=O)NCCC1=CCCCC1,10%,8%,-1.3%,-7
COc1ccc(/C=C(\NC(=O)c2ccccc2)C(=O)NCCN2CCOCC2)cc1,?,-1%,?,/
O=C(Nc1nccs1)C1CCN(S(=O)(=O)c2cnc[nH]2)CC1,1%,2%,1.3%,2
COc1ccc(/C=C(/NC(=O)c2ccco2)C(=O)Nc2ccc(C(=O)O)cc2)cc1,14%,-1%,-2.6%,/
CC(C)N(C(=O)CO/N=C/c1cccc([N+](=O)[O-])c1)C(C)C,8%,-4%,-2.0%,4
O=C(NCCc1cccnc1)c1cc(COc2ccc(F)cc2Cl)on1,?,1%,1.2%,/
NS(=O)(=O)c1ccc(CCNC(=O)[C@@H]2CCCN2S(=O)(=O)c2ccccc2F)cc1,27%,-2%,-0.1%,0
Cc1c(S(=O)(=O)NC2CCCCCC2)c(=O)n(C)c(=O)n1C,?,/,-1.5%,/
Nn1c(SCc2ccccc2F)nnc1-c1ccncc1,7%,-29%,2.9%,-5
CCC(C)NS(=O)(=O)c1ccc(S(=O)(=O)N(CC(=O)Nc2ccccc2)CC2CCCO2)cc1 (stereo unspecified),-10%,2%,0.8%,-29
O=C(O)c1ccc(Nc2ncc([N+](=O)[O-])cc2[N+](=O)[O-])cc1,-11%,0%,1.6%,-10
COc1ccc(C2=NOC3(CC(=O)N(c4ccc(C)cc4)C3=O)C2)c(OC)c1 (stereo unspecified),3%,-5%,0.0%,1
CC(C)(C)n1nc2c(c1NC(=O)Cc1ccc(Cl)cc1)CS(=O)(=O)C2,-8%,-1%,5.9%,/
Cc1cccc(OCC(=O)NCC(c2cccs2)N2CCOCC2)c1 (stereo unspecified),1%,/,2.2%,/
O=C(Cn1nnc2ccccc21)Nc1ccc([N+](=O)[O-])cc1,1%,-4%,-3.2%,3
CC1CC(C)CN(S(=O)(=O)N2CCC(C(=O)NCCC3=CCCCC3)CC2)C1 (stereo unspecified),-1%,0%,-0.6%,1
O=c1c(Cl)c(N2CCNCC2)cnn1C12CC3CC(CC(C3)C1)C2,-5%,2%,-8.5%,2
COc1ccccc1CNC(=O)c1ccc2c(=O)n(CC3CCCO3)c(=S)[nH]c2c1 (stereo unspecified),-11%,2%,0.7%,/
COc1ccc(-c2ccnc(SCC(=O)N3CCN(c4ccccc4)CC3)n2)cc1,27%,-2%,-2.2%,-11
COc1cc(NC(=O)CCn2c(=O)[nH]c3ccsc3c2=O)cc(OC)c1,4%,-5%,3.0%,3
COc1ccc(-c2nc(N)n(C(=O)c3ccc(C)cc3)n2)cc1,-19%,-12%,3.0%,3
CCN(CC)CCN1CCn2c3c(c4cc(C)ccc42)CCCC31 (stereo unspecified),-28%,11%,?,-12
CC(=O)NC1=NC(=O)C(C)S1 (stereo unspecified),1%,-1%,0.2%,-14

# Part of the list above, limited to Rango dissoc inh.
Molecule | Rango dissoc inh
O=C(Cn1nnc2ccccc21)Nc1ccc([N+](=O)[O-])cc1 | 1%
CC1CC(C)CN(S(=O)(=O)N2CCC(C(=O)NCCC3=CCCCC3)CC2)C1 (stereo unspecified) | -1%

# New compounds follow
SMILES,Rango dissoc inh,miR-21 reporter,Rango-impB inh,GLA inh pH 4.5
Cc1cc(N(CC(=O)NC2CC2)S(C)(=O)=O)ccc1Br,-2%,0%,-0.7%,-7
COc1ccc(C2=NOC(C(=O)N3CCN(C(=O)c4ccco4)CC3)C2)cc1OC (stereo unspecified),14%,-1%,0.3%,/
O=c1cc(NS(=O)(=O)c2ccccc2)nc(SCc2ccc(Cl)cc2)[nH]1,-11%,-20%,1.3%,15
Cc1cc(NC(=O)CCC(=O)N(CC(=O)NCC2CCCO2)c2ccccc2C)no1 (stereo unspecified),2%,-1%,6.7%,-6
CCN(CC)S(=O)(=O)c1ccc(C)c(NC(=O)COc2ccc(Br)cc2Cl)c1,11%,-5%,0.1%,7
CCOC(=O)c1[nH]c(C)c(CCC(=O)O)c1C,-24%&13%,2%&3%,-0.7%&5.3%,4&-2
CCOC(=O)[C@@H]1[C@H]2COc3ccccc3[C@@H]2N2C(=O)N(c3cccc(C)c3)C(=O)[C@]12C,-14%,2%,-4.0%,/
COc1ccc(C(=O)NNC(=O)c2ccncc2)cc1,2%,-7%,7.3%,1
CC1C2C(c3ccccc3)N(C)C(=O)N(C)C2N(C)C(=O)N1C (stereo unspecified),-22%,-1%,?,-2
CCN(CC)S(=O)(=O)c1ccc(N2CCCC2)c(NC(=O)C2=NN(c3ccccc3)C(=O)CC2)c1,-2%,/,1.2%,/

# Of the compounds above, 3 have a thiophene ring, fused or not.
SMILES,Rango dissoc inh,miR-21 reporter,Rango-impB inh,GLA inh pH 4.5
CCOC(=O)c1c(-c2ccccc2)csc1NC(=O)c1cccc(N2C(=O)CCC2=O)c1,-1%,3%,-2.1%,3
Cc1cccc(OCC(=O)NCC(c2cccs2)N2CCOCC2)c1 (stereo unspecified),1%,/,2.2%,/
COc1cc(NC(=O)CCn2c(=O)[nH]c3ccsc3c2=O)cc(OC)c1,4%,-5%,3.0%,3

# (further entries)
SMILES,Rango dissoc inh,miR-21 reporter,Rango-impB inh,GLA inh pH 4.5
Cc1cc(C(=O)CN2C(=O)NC3(CCCCC3)C2=O)c(C)n1C,3%,-39%,-1.9%,-10
CC(=O)Nc1ccc(S(=O)(=O)NNC(=O)CCC(=O)NCc2ccccc2)cc1,-3%,/,-3.4%,/
CCn1nc(C)cc1C(=O)N1CCCC(N2CCN(c3ccccc3OC)CC2)C1 (stereo unspecified),0%,/,-2.0%,/
COc1cccc(C(CNC(=O)c2ccc(Cl)c(S(=O)(=O)N3CCCC3)c2)N(C)C)c1 (stereo unspecified),?,/,2.7%,/
NC1=NC[C@H](CC2CCCCC2)N1CCc1cc(C(F)(F)F)cc(C(F)(F)F)c1,-20%,?,-0.1%,-10
CCN(CC)c1ccc(NC(=O)c2cccc(F)c2)c(C)c1,6%,0%,-1.7%,4
CC(C)N(C(=O)C[n+]1ccsc1N)c1ccccc1,1%,0%,3.2%,1
CC1CC2=C(C(=O)O1)C(C)Nc1ccccc1N2 (stereo unspecified),-5%,0%,-0.5%,-2
O=C(Nc1c2c(nn1-c1ccc([N+](=O)[O-])cc1)CS(=O)(=O)C2)c1cccs1,-4%,15%,-1.2%,/
O=c1ccn([C@@H]2O[C@H](CNS(=O)(=O)c3csc(-c4ccno4)c3)[C@@H](O)[C@H]2O)c(=O)[nH]1,9%,/,1.6%,/
NS(=O)(=O)c1ccc(CNC(=O)CCSCCC(=O)NCc2ccc(S(N)(=O)=O)cc2)cc1,3%,1%,-1.6%,2
O=C(O)CCC(=O)Nc1cccc(C(=O)Nc2cccc(Cl)c2)c1,1%,-2%,-0.6%,-3
CN(CC(=O)Nc1ccccc1Cl)CC(=O)Nc1ccccc1[N+](=O)[O-],32%,2%,-2.7%,-3
Cc1csc(=O)n1CCC(=O)OCC(=O)NCc1ccc(F)cc1,-3%,/,2.9%,/
O=C(c1ccc2c(c1)OCO2)N1CCN(CCN2C(=O)c3cccc4cccc(c34)C2=O)CC1,-18%,/,1.5%,/
CCN(C(=O)COc1ccccc1)C1CCCCC1,1%,-6%,2.2%,-2
Cc1ccc(Cn2nnnc2CN2CCC(c3nc4ccc(Cl)cc4[nH]3)CC2)cc1,13%,23%,-0.5%,-11
O=C1CCC(C(=O)N2CCC(CO)CC2)CN1Cc1ccc(Cl)cc1 (stereo unspecified),-1%,-2%,1.2%,/
Cc1cccc(COCC(Cc2ccccc2)N2CCN(C(=O)c3cccc(C)c3)CCC2=O)c1 (stereo unspecified),13%,0%,-3.4%,-11
COc1cccc(C2NC(=O)NC(C)=C2C(=O)OCC2CCCCC2)c1 (stereo unspecified),-10%,0%,-2.9%,/
O=S(=O)(NCCC1=CCCCC1)c1ccc(F)cc1,6%,-2%,5.5%,/
O=S(=O)(NC1CCCCCC1)c1cccc(Cl)c1,0%,/,-1.1%,/
CCc1nnc(NC(=O)CSc2nnc(-c3cccnc3)n2CC)s1,2%,5%,-13%,8
COC(=O)c1ccccc1NC(=O)CNc1cc(Cl)ccc1N1CCOCC1,0%,0%,3.4%,-7
CC(C)OCCCNC(=O)CNC(=O)c1cccs1,6%,-5%,1.3%,3
COc1ccc(-c2nc(-c3cccnc3)no2)cc1OC,13%,-96%,-2.0%,4
COC(=O)C1CCN(CC(=O)NC(=O)Nc2ccccc2F)CC1,-11%,/,-1.2%,/
CC1(C)C2CC[C@]3(C)C(CC=C4[C@@H]5C[C@@](C)(CO)CC[C@]5(C(=O)O)CC[C@]43C)[C@@]2(C)CC[C@@H]1O (stereo partly specified),-1%,/,-3.3%,/
CCc1ccc(/C=C2\SC(=S)N(CCCC(=O)Nc3nccs3)C2=O)cc1,1%,-2%,0.2%,-1
O=S(=O)(Nc1nc2ccc(S(=O)(=O)N3CCCC3)cc2s1)c1ccc(F)cc1,-9%,0%,?,1
O=C(NC(=S)NNC(=O)[C@H]1C[C@@H]1c1ccccc1)c1cccc(F)c1,-18%,-9%,1.1%,-3
CCOC(=O)C1CCCN(C(=O)c2ccc(Cl)c(S(=O)(=O)N3CCCCC3)c2)C1 (stereo unspecified),4%,10%,1.5%,2
COC(C[C@H](O)C[C@@H](O)COCc1ccccc1)OC,-12%,2%,-0.9%,3
COC(=O)/C(=C/c1cccnc1)NC(=O)c1ccccc1,-6%,2%,-4.7%,-5
CC(=O)SCCC(=O)Nc1ccccc1,4%,-1%,-1.9%,3
C[C@H](NC(=O)[C@H]1N2C(=O)c3ccccc3C2SC1(C)C)C(=O)NCc1ccncc1 (stereo partly specified),8%,-1%,-0.9%,/
C[C@@H]1CN([C@@H](C)CO)C(=O)Cc2cc(NC(=O)Nc3cccc4ccccc34)ccc2O[C@@H]1CN(C)Cc1ccc(C(F)(F)F)cc1,1%,/,2.5%,/
Clc1ccc(Cc2nnc(-c3cccs3)o2)cc1,10%,-76%,4.7%,2
CCOC(=O)Cn1nnnc1CN(Cc1ccccc1)Cc1cc2cc(CC)ccc2[nH]c1=O,2%,-10%,0.6%,-7
COC(=O)c1ccc(C(=O)NC2CCCN(Cc3ccc(Cl)cc3)C2)nc1 (stereo unspecified),-4%,18%,0.3%,/
CC(=O)Nc1ccc(S(=O)(=O)NCC(=O)OC(C)c2ccccc2Cl)cc1 (stereo unspecified),12%,-9%,-0.9%,0
O=C(NCC1COc2ccccc2O1)c1ccco1 (stereo unspecified),-2%,-17%,-1.7%,4
COc1ccc(C(=O)Nc2nc3nc(-c4ccccc4)cc(=O)n3[nH]2)cc1,1%,-7%,-4.2%,2
Cc1nn(S(=O)(=O)c2ccc(Cl)cc2)c(C)c1S(=O)(=O)N1CCOCC1,6%,3%,1.2%,/
O=C(COC(=O)c1ccc([N+](=O)[O-])s1)NCc1ccccc1,-2%,-2%,-0.5%,1
CCC(C)[C@H]1CNCCN1CCc1cccc(F)c1 (stereo partly specified),0%,/,0.4%,/
CCN(c1ccccc1)S(=O)(=O)c1ccc(OC)c(NC(=O)c2cc(Cl)ccn2)c1,-9%,/,-3.7%,/
Cc1noc(C)c1CN1C(=O)NC2(CCc3ccccc3C2)C1=O (stereo unspecified),1%,5%,1.3%,3
COc1cc(C(=O)NNC(=O)c2cccn2C)cc(OC)c1OC,0%,/,5.1%,/

# These rows are one share of the data; the hit share may differ from the screen's.
